Env fusion inh = blocks HIV Env-driven cell-cell fusion. inhibition, % at 12.3 µM. actives 1.1% (n = 360,000). HeLa-JRFL Env/CEM21 cell fusion, luciferase. AID 651610;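 active = mean replicate inhibition score of at least 50 and every replicate individually at or above 50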;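 also: 0% = plate neutral controls and 100% = maraviroc near 300 nM; one replicate is shown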
Yeast UUG start = alters start codon recognition fidelity in yeast | AID 602363 | S. cerevisiae UUG-firefly luciferase reporter, luminescence/redox ratio | actives 0.13% (n = 350,000) | activity score, % at 18.7 µM;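 active = replicate mean at a twofold rise or more, about +100% in these data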;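 also: firefly luciferase made from a UUG start codon reports start codon fidelity; reporter light over untreated wells divided by growth signal over untreated wells; some hits fall short of that in this replicate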
* = called active by the depositor; [ ] = another dose, or the depositor's remark. This is a subset; the hit share may differ from the screen's.

Results follow in this order: Env fusion inh, Yeast UUG start
- CCC(=O)Nc1ccc2c(c1)C(=O)N(C)[C@@H]1CC[C@H](CC(=O)NCCN3CCCCC3)O[C@H]1CO2
  3.4[16.7 µM], -0.6
- CN1CCN(C(=O)C[C@H]2C[C@@H]3c4cc(NS(=O)(=O)c5ccc(F)cc5)ccc4O[C@@H]3[C@H](CO)O2)CC1
  36.7[16.7 µM], 18.1
- C[C@H](CO)N1C[C@H](C)[C@@H](CN(C)C(=O)NC2CCCCC2)Oc2ccc(NC(=O)c3ccncc3)cc2CC1=O
  -7.4[16.7 µM], -19.3
- C[C@@H]1CCCCO[C@H](CN(C)C(=O)C2CCCCC2)[C@@H](C)CN([C@H](C)CO)C(=O)c2cc(NC(=O)c3ccccc3)ccc2O1
  -31.0[16.7 µM], -8.5
- C[C@@H]1CN([C@H](C)CO)C(=O)Cc2cc(NS(=O)(=O)c3cn(C)cn3)ccc2O[C@@H]1CN(C)Cc1ccccc1
  11.7[16.7 µM], -5.8
- Cc1noc(C)c1S(=O)(=O)N(C)C[C@@H]1Oc2ccc(NC(=O)CCC(F)(F)F)cc2CC(=O)N([C@H](C)CO)C[C@H]1C
  14.2[16.7 µM], 15.4
- Cc1cc(C(=O)Nc2ccc3c(c2)C(=O)N(C)[C@@H]2CC[C@@H](CC(=O)N[C@@H](C)c4ccccc4)O[C@H]2CO3)no1
  20.1[16.7 µM], 11.1
- CNC[C@@H]1Oc2c(NC(=O)Nc3c(C)noc3C)cccc2C(=O)N([C@H](C)CO)C[C@H]1C
  -39.4[16.7 µM], -15.3
- C[C@@H]1CN([C@H](C)CO)C(=O)c2cccc(NS(=O)(=O)c3cccs3)c2O[C@@H]1CN(C)S(=O)(=O)c1ccc(Cl)cc1
  -5.3[16.7 µM], 0.0
- C[C@H]1CN([C@@H](C)CO)C(=O)c2cc(-c3ccc(C#N)cc3)cnc2O[C@@H]1CN(C)C(=O)CC1CC1
  -8.5[16.7 µM], 3.6
- C[C@@H]1CN([C@@H](C)CO)S(=O)(=O)c2ccc(-c3cncnc3)cc2O[C@@H]1CN(C)C(=O)Cc1ccccc1
  -25.7[16.7 µM], -1.3
- Cc1noc(C)c1NC(=O)N(C)C[C@@H]1Oc2c(NC(=O)NC3CCCCC3)cccc2C(=O)N([C@@H](C)CO)C[C@@H]1C
  -11.8[16.7 µM], 8.1
- COc1ccc(NC(=O)N(C)C[C@H]2OCCCC[C@H](C)Oc3ccc(NS(C)(=O)=O)cc3C(=O)N([C@@H](C)CO)C[C@H]2C)cc1
  7.1[16.7 µM], 0.5
- CN1C(=O)c2cc(NC(=O)c3ccc(F)cc3)ccc2OC[C@@H]2O[C@@H](CC(=O)O)CC[C@H]21
  -11.7[16.7 µM], 5.0
- CCC(=O)N(C)C[C@H]1Oc2ncc(C#CCc3ccccc3)cc2C(=O)N([C@@H](C)CO)C[C@@H]1C
  2.8[16.7 µM], 3.6
- O=C(C[C@H]1CC[C@H](NC(=O)c2ccncc2)[C@H](CO)O1)NCC1CCCCC1
  -7.0[16.7 µM], 4.0
- C[C@@H]1CN([C@@H](C)CO)C(=O)Cc2cc(NS(=O)(=O)c3cn(C)cn3)ccc2O[C@@H]1CN(C)C(=O)NC1CCCCC1
  4.8[16.7 µM], -3.8
- CO[C@@H]1CN(C)C(=O)c2ccc(NC(=O)c3ccccc3)cc2OC[C@H](C)N(C)C[C@@H]1C
  -18.2[16.7 µM], 79.6
- C[C@H](CO)N1C[C@H](C)[C@H](CN(C)Cc2ccccc2F)Oc2ncc(-c3ccccc3F)cc2C1=O
  8.7[16.7 µM], -5.9
- CO[C@H]1CN(C)C(=O)c2cc(NC(C)=O)ccc2OC[C@H](C)N(C(=O)C2CC2)C[C@H]1C
  -31.7[16.7 µM], -6.0
- C[C@H]1CCCCO[C@H](CN(C)C(=O)C2CCCCC2)[C@@H](C)CN([C@@H](C)CO)C(=O)c2cc(NS(=O)(=O)c3ccccc3)ccc2O1
  -28.0[16.7 µM], -1.5
- C[C@H](CO)N1C[C@H](C)[C@H](CN(C)Cc2ccc3c(c2)OCO3)Oc2ccc(NS(=O)(=O)c3cn(C)cn3)cc2CC1=O
  -13.7[16.7 µM], -19.2
- C[C@@H]1CN([C@@H](C)CO)C(=O)CCCn2cc(nn2)CO[C@@H]1CN(C)C(=O)Nc1ccc(C(F)(F)F)cc1
  16.7[16.7 µM], 4.8
- C/C=C/c1cnc2c(c1)C(=O)N([C@@H](C)CO)C[C@H](C)[C@@H](CN(C)Cc1cncnc1)O2
  -5.0[16.7 µM], -3.8
- C[C@@H]1CN([C@@H](C)CO)S(=O)(=O)c2ccc(-c3ccncc3)cc2O[C@H]1CN(C)C(=O)CN(C)C
  -3.3[16.7 µM], -0.1
- COc1ccc(NC(=O)N(C)C[C@@H]2OCCCC[C@@H](C)Oc3ccc(NC(=O)NC(C)C)cc3C(=O)N([C@@H](C)CO)C[C@H]2C)cc1
  21.4[16.7 µM], 10.5
- COc1ccc(CN(C)C[C@@H]2Oc3ccc(NS(=O)(=O)c4c(C)noc4C)cc3C(=O)N([C@@H](C)CO)C[C@@H]2C)cc1
  8.1[16.7 µM], -9.3
- C[C@H]1CN([C@@H](C)CO)C(=O)Cc2cc(NC(=O)Cn3cnnn3)ccc2O[C@H]1CN(C)S(=O)(=O)c1ccc(Cl)cc1
  -14.1[16.7 µM], -1.9
- O=C(N[C@H]1CC[C@@H](CCNS(=O)(=O)c2cccc(Cl)c2)O[C@H]1CO)c1ccncc1
  -5.8[16.7 µM], -11.1
- CC(=O)N(C)C[C@@H]1Oc2cc(C#Cc3cccnc3)ccc2S(=O)(=O)N([C@@H](C)CO)C[C@@H]1C
  -0.8[16.7 µM], 8.9

Reprinted from the part before: 3 entries; new compounds follow.
Results follow in this order: Env fusion inh, Yeast UUG start
- C[C@H]1CN([C@@H](C)CO)C(=O)Cc2cc(NC(=O)Cn3cnnn3)ccc2O[C@H]1CN(C)S(=O)(=O)c1ccc(Cl)cc1
  -14.1[16.7 µM], -1.9
- O=C(N[C@H]1CC[C@@H](CCNS(=O)(=O)c2cccc(Cl)c2)O[C@H]1CO)c1ccncc1
  -5.8[16.7 µM], -11.1
- CC(=O)N(C)C[C@@H]1Oc2cc(C#Cc3cccnc3)ccc2S(=O)(=O)N([C@@H](C)CO)C[C@@H]1C
  -0.8[16.7 µM], 8.9
- CC(C)NC(=O)Nc1ccc2c(c1)C(=O)N([C@H](C)CO)C[C@H](C)[C@H](CN(C)Cc1ccc3c(c1)OCO3)OCCCC[C@@H](C)O2
  0.5[16.7 µM], -9.6
- C[C@H]1CN([C@@H](C)CO)C(=O)c2cc(NC(=O)CCN3CCOCC3)ccc2O[C@@H]1CN(C)S(=O)(=O)c1cccs1
  -2.4[16.7 µM], -20.1
- C[C@@H]1CCCCO[C@H](CN(C)C(=O)c2ccncc2)[C@H](C)CN([C@@H](C)CO)C(=O)c2cc(NS(=O)(=O)c3cccs3)ccc2O1
  -10.1[16.7 µM], 5.4
- O=C(C[C@H]1C[C@H]2c3cc(NC(=O)Nc4ccccc4F)ccc3O[C@H]2[C@@H](CO)O1)NCC1CC1
  -3.3[16.7 µM], -5.1
- C[C@@H]1CN([C@@H](C)CO)C(=O)c2cc(NC(=O)C3CC3)ccc2O[C@@H]1CN(C)CC1CC1
  -10.1[16.7 µM], -6.0
- CC(C)C(=O)Nc1ccc2c(c1)C(=O)N(C)[C@@H]1CC[C@H](CC(=O)NCC3CC3)O[C@H]1CO2
  -16.9[16.7 µM], 1.5
- C[C@@H]1CCCCO[C@@H](CN(C)Cc2ccc(C(=O)O)cc2)[C@H](C)CN([C@H](C)CO)C(=O)c2cc(NS(=O)(=O)c3ccc(F)cc3)ccc2O1
  -7.2[16.7 µM], 32.7
- CCCN1C[C@@H](C)[C@H](OC)CN(C)C(=O)c2ccc(NC(=O)Nc3c(C)noc3C)cc2OC[C@H]1C
  0.1[16.7 µM], 6.6
- C[C@@H]1CCCCO[C@H](CN(C)Cc2ccc(C(=O)O)cc2)[C@@H](C)CN([C@@H](C)CO)C(=O)c2cc(NC(=O)c3ccccc3)ccc2O1
  -3.1[16.7 µM], 1.5
- C[C@H](CO)N1C[C@H](C)[C@H](CN(C)C(=O)Cc2ccccc2)Oc2cc(C3=CCCCC3)ccc2S1(=O)=O
  -0.1[16.7 µM], 3.4
- C/C=C/c1ccc2c(c1)O[C@@H](CN(C)C(=O)Nc1ccccc1)[C@@H](C)CN([C@@H](C)CO)S2(=O)=O
  -17.6[16.7 µM], -4.1
- COc1ccc(-c2cnc3c(c2)C(=O)N([C@@H](C)CO)C[C@H](C)[C@@H](CN(C)C(=O)Cc2ccccn2)O3)cc1
  1.1[16.7 µM], -17.9
- O=C(N[C@H]1C=C[C@@H](CC(=O)N2CCc3ccccc3C2)O[C@@H]1CO)C1CCC1
  5.3[16.7 µM], -4.6
- CCS(=O)(=O)NCC[C@H]1CC[C@H](NC(=O)Cc2ccccn2)[C@@H](CO)O1
  16.1[16.7 µM], -1.7
- C[C@@H]1CN([C@H](C)CO)S(=O)(=O)c2ccc(C#Cc3ccccc3)cc2O[C@@H]1CN(C)C
  -36.5[16.7 µM], -3.2
- Cc1ccc(-c2cnc3c(c2)C(=O)N([C@@H](C)CO)C[C@H](C)[C@H](CN(C)Cc2ccccc2C(=O)O)O3)cc1
  -3.2[16.7 µM], 11.8
- C[C@@H]1CN([C@H](C)CO)C(=O)c2cc(-c3cccnc3)cnc2O[C@@H]1CN(C)C
  -27.9[16.7 µM], -13.3
- C[C@@H]1CN([C@@H](C)CO)C(=O)c2cc(NS(=O)(=O)c3cccs3)ccc2O[C@@H](C)CCCCO[C@@H]1CN(C)C(=O)Nc1ccccc1
  -4.5[16.7 µM], 17.0
- C[C@H](CO)N1C[C@H](C)[C@H](CN(C)Cc2ccccc2)OCCCC[C@H](C)Oc2ccc(NS(=O)(=O)c3ccc(Cl)cc3)cc2C1=O
  21.3[16.7 µM], 34.3
- COc1ccc(S(=O)(=O)Nc2ccc3c(c2)C(=O)N([C@@H](C)CO)C[C@@H](C)[C@H](CN(C)C(=O)c2ccccc2)OCCCC[C@H](C)O3)cc1
  13.7[16.7 µM], 13.7
- C[C@H]1CN([C@@H](C)CO)C(=O)c2cccc(NC(=O)C3CC3)c2O[C@H]1CN(C)C(=O)NC1CCCCC1
  5.2[16.7 µM], -1.2
- C[C@H](NC(=O)C[C@H]1C=C[C@H](NC(=O)CN2CCOCC2)[C@@H](CO)O1)c1ccccc1
  23.0[16.7 µM], -3.3
- CCNC(=O)C[C@H]1CC[C@@H](NC(=O)NC2CCCCC2)[C@H](CO)O1
  1.4[16.7 µM], -0.9
- COc1ccc(NC(=O)N(C)C[C@H]2Oc3ccc(NS(=O)(=O)c4cccs4)cc3CC(=O)N([C@H](C)CO)C[C@@H]2C)cc1
  10.0[16.7 µM], -6.0
- CNC[C@H]1Oc2ccc(NC(=O)NC(C)C)cc2C(=O)N([C@@H](C)CO)C[C@@H]1C
  -6.5[16.7 µM], -1.8
- CN(C)CC(=O)N1[C@H](C#N)[C@H](c2ccc(C#CC3CCCCC3)cc2)[C@@H]1CO
  5.7[16.7 µM], 3.5
- C[C@H]1CN([C@@H](C)CO)C(=O)c2cc(C3=CCCCC3)cnc2O[C@@H]1CN(C)C(=O)c1cccnc1
  3.9[16.7 µM], 21.1
- O=C(NCC[C@H]1CC[C@H](NC(=O)C2CCC2)[C@@H](CO)O1)c1cc(Cl)cc(Cl)c1
  -13.3[16.7 µM], 6.9
- C[C@@H]1CN([C@H](C)CO)C(=O)c2cc(NC(=O)CCCCCC(=O)Nc3ccccc3N)ccc2O[C@@H]1CN(C)C(=O)Nc1ccc2c(c1)OCO2
  38.5[16.7 µM], 23.7
- CS(=O)(=O)Nc1ccc2c(c1)[C@H]1C[C@@H](CC(=O)N3CCc4ccccc4C3)O[C@H](CO)[C@H]1O2
  0.9[16.7 µM], 4.3
- O=C(C[C@@H]1C=C[C@H](NC(=O)C2CCOCC2)[C@H](CO)O1)Nc1ccc(-c2ccccc2)cc1
  -11.4[16.7 µM], -12.8
- C[C@@H]1CN([C@H](C)CO)C(=O)c2cc(C#Cc3ccccc3F)cnc2O[C@H]1CN(C)C(=O)c1ccc2c(c1)OCO2
  8.3[16.7 µM], 9.5
- O=C(N[C@@H]1CC[C@H](CC(=O)N2CCN(c3ccccc3)CC2)O[C@H]1CO)c1ccccc1
  16.9[16.7 µM], 22.1
- C[C@@H]1CCCCO[C@H](CN(C)C(=O)Nc2ccccc2)[C@@H](C)CN([C@H](C)CO)C(=O)c2cc(NS(=O)(=O)c3ccccc3)ccc2O1
  -28.7[16.7 µM], -3.4
- Cc1ccc(S(=O)(=O)N(C)C[C@@H]2Oc3ccc(NS(=O)(=O)c4ccc(F)cc4)cc3C(=O)N([C@@H](C)CO)C[C@@H]2C)cc1
  25.2[16.7 µM], 24.0
- CO[C@@H]1CN(C)C(=O)c2ccc(NC(=O)C3CCCC3)cc2OC[C@@H](C)N(CCC(F)(F)F)C[C@@H]1C
  -12.1[16.7 µM], 3.7
- C/C=C/c1ccc2c(c1)O[C@@H](CN(C)C(=O)NCCC)[C@@H](C)CN([C@H](C)CO)S2(=O)=O
  -15.1[16.7 µM], 13.3
- O=C(C[C@@H]1C=C[C@@H](NC(=O)Nc2ccccc2F)[C@H](CO)O1)NCc1ccc(F)cc1
  3.7[16.7 µM], -10.9
- C/C=C/c1cnc2c(c1)C(=O)N([C@H](C)CO)C[C@H](C)[C@H](CN(C)C(=O)c1cccc(F)c1)O2
  -6.1[16.7 µM], 6.0
- COc1ccc(NC(=O)Nc2ccc3c(c2)C(=O)N([C@@H](C)CO)C[C@@H](C)[C@H](CN(C)CC2CCCCC2)OCCCC[C@@H](C)O3)cc1
  9.5[16.7 µM], 4.7
- O=C(Nc1ccc2c(c1)[C@@H]1C[C@H](CC(=O)N3CCOCC3)O[C@H](CO)[C@@H]1O2)c1ccc2c(c1)OCO2
  -14.9[16.7 µM], -6.4

Source: PubChem BioAssay
